rRNA inh HTS: inhibitors of bacterial rRNA selective over humanized ribosomes; E. coli WT GFP vs humanized-ribosome RFP mutants, fluorescence, 24 h; active compounds read low; DMSO median 0, no signal -100; GFP signal change (wild-type ribosome), % (concentration not given with the values); 1.6% of 350,000 active;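 active = significant combined selectivity score with lowered wild-type GFP, culture density cut under 30%, mutant RFP and density less affected; inactive = any of these conditions unmet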; note: one replicate is shown; some compounds called inactive have numbers as strong as hits
FGF22 binding: shifts melting point of recombinant human FGF22; recombinant FGF22 thermal shift, SYPRO orange fluorescence; percent of sucrose octasulfate shift, DMSO zero; calls only at 9.99 µM; 1.5% of 340,000 active;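 active = melting point raised past a set limit in the mean and every replicate; three in four hits are not shown here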
Target sequence (Q9HCT0 whole entry, looked up): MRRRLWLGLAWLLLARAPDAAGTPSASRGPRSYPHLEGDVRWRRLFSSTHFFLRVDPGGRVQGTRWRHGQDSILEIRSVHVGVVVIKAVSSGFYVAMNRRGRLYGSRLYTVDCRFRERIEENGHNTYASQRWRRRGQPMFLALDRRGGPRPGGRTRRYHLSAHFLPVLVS
AF4-AF9 inh: inhibitors of human MLL-AF4/AF9 interaction | AlphaScreen, biotin-AF4 peptide binding to FLAG-AF9 | inhibition, % at 10 µM | 0.47% of 350,000 active;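 active = every replicate reaching a set inhibition limit, whatever the replicate mean, cut at about 25% in these data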;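 note: 0% = plate neutral control median and 100% = total signal loss; the record names both 10 and 1 µM as test concentration; the first replicate is given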
Target sequence (P42568 whole entry, looked up): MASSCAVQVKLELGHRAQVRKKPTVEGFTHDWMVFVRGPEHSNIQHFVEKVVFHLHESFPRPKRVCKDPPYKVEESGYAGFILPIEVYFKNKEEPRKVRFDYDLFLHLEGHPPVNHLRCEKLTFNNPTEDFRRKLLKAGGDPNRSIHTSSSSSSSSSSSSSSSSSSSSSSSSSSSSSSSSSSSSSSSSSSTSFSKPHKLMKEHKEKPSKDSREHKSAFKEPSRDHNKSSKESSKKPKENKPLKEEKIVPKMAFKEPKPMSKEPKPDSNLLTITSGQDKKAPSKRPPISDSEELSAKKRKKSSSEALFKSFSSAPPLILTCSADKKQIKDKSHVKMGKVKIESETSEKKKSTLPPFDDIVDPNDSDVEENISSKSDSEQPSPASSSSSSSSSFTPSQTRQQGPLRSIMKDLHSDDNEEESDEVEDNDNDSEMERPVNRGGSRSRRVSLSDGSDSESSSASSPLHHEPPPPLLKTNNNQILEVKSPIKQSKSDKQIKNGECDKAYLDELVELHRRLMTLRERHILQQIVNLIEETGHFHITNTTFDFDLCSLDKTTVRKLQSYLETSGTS
rRNA inh HTS OD600: recorded beside rRNA inh HTS, whose call it bears; OD600 change, %; measured here: OD600 growth;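 optical density of the mix in the first replicate; 0 = DMSO median and -100 = no signal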
rRNA inh HTS RFP: further read-out of rRNA inh HTS, marked with its call; RFP signal change, %; measured here: RFP humanized mutant strains;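 first replicate; 0 = DMSO median and -100 = no signal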
The depositor's hits bear a star; i = inactive; & = joins results of further samples. An excerpt; rates above refer to the full screens.

The line under a structure holds: rRNA inh HTS	rRNA inh HTS OD600	rRNA inh HTS RFP	FGF22 binding	AF4-AF9 inh
C[C@H]1CN([C@@H](C)CO)C(=O)c2cccc(NC(=O)C3CCCCC3)c2O[C@H]1CN(C)C
  6	6	-1.4	i	-2.4
CN1CCCCN2[C@@H](CO)[C@H](c3ccc(-c4ccccc4)cc3)[C@@H]2C1
  3	2	3.1	i	-1.0
C[C@H](CO)N1C[C@H](C)[C@H](CN(C)C(=O)Nc2ccccc2)Oc2c(NS(=O)(=O)c3ccc(Cl)cc3)cccc2C1=O
  0	3	-1.5	i	7.3
C[C@H]1CN([C@@H](C)CO)C(=O)Cc2cc(NS(=O)(=O)c3cn(C)cn3)ccc2O[C@H]1CN(C)S(=O)(=O)c1ccc(F)cc1
  3	-1	-2.1	i	-3.2
CCN(CC)c1ncnc2c1ncn2[C@H]1CN(Cc2ccc(OC)cc2)C[C@@H](CO)O1
  3	-2	0.1	i	1.1
C[C@H](CO)N1C[C@H](C)[C@H](CN(C)C(=O)C2CCCCC2)OCCCC[C@H](C)Oc2ccc(NC(=O)c3ccccc3)cc2C1=O
  -3	-12	1.2	i	-1.4
CCC(=O)Nc1ccc2c(c1)C(=O)N(C)C[C@H](OC)[C@@H](C)CN(C(=O)c1cnccn1)[C@H](C)CO2
  5	9	-0.3	i	2.3
OCCNc1ncnc2c1nnn2Cc1ccccc1Cl
  5	7	2.0	i	-2.0
CSc1n[nH]c(-c2cccs2)n1
  6	21	-1.2	i	-3.8
CC[C@H](C)[C@H]1CNC(=S)N1CC1CCN(CCCCc2ccccc2)CC1
  7	15	-1.4	i	5.0
Cc1ccc(S(=O)(=O)N2CCCc3nc(-c4ccccc4)ccc32)cc1
  3	5	2.2	i	1.8
CN(Cc1ccccc1)C(=O)[C@@H]1CCCN1C(=O)[C@@H]1CCCN1C(=O)c1c(F)cccc1F
  15	13	-1.0	i	0.4
CC(C)C[C@@H]1COc2cc(N3CCC[C@H]3CO)ccc2S(=O)(=O)N1
  3	4	3.1	i	-3.1
C/C=C/c1ccc2c(c1)O[C@@H](CN(C)Cc1cccc(F)c1)[C@H](C)CN([C@@H](C)CO)S2(=O)=O
  3	-4	-5.4	i	8.0
COc1ccc(Cc2nc3ccc(C(=O)NC4CCOC4)cc3o2)cc1OC (stereo not given)
  6	9	2.5	i	-0.2
C[C@@H]1CCCCO[C@H](CN(C)Cc2ccc(Cl)c(Cl)c2)[C@@H](C)CN([C@H](C)CO)C(=O)c2cc(NC(=O)c3ccncc3)ccc2O1
  -1	-5	0.7	i	2.7
CCCCNC(=O)C1(C)CCC(=O)N1c1cc(C(C)(C)C)nn1C (stereo not given)
  1	1	-2.7	i	-0.1
COCC(=O)N(C)C[C@@H]1Oc2ncc(C3=CCCC3)cc2C(=O)N([C@@H](C)CO)C[C@H]1C
  2	16	-1.8	i	-2.2
CNC[C@@H]1Oc2ccc(NS(=O)(=O)c3c(C)noc3C)cc2C(=O)N([C@@H](C)CO)C[C@H]1C
  5	3	-2.6	i	-6.4
CN(C)c1ncnc2c1ccn2C1OC(CO)C(O)C1O (stereo not given)
  11	8	-3.6	i	2.0
CCCNC(=O)Nc1ccc2c(c1)C(=O)N(C)[C@@H]1CC[C@H](CC(=O)OC)O[C@H]1CO2
  1	1	-3.6	i	-0.9
C[C@H](CO)N1C[C@H](C)[C@@H](CN(C)CC2CCCCC2)Oc2ccc(NC(=O)Cc3cn(C)c4ccccc34)cc2C1=O
  2	-12	8.5	i	11
CC(C)CC#Cc1cnc2c(c1)C(=O)N([C@H](C)CO)C[C@H](C)[C@H](CN(C)C(=O)c1cccnc1)O2
  1	3	5.5	i	-1.9
COCC#Cc1ccc2c(c1)O[C@@H](CN(C)Cc1ccccc1)[C@H](C)CN([C@H](C)CO)S2(=O)=O
  -35	-68	-3.1	i	3.3
CNC[C@H]1Oc2ccc(NC(=O)Nc3ccc(F)cc3)cc2CC(=O)N([C@@H](C)CO)C[C@@H]1C
  5	0	0.0	i	-0.5
C[C@H]1CN([C@@H](C)CO)C(=O)Cc2cc(NC(=O)CCC(F)(F)F)ccc2O[C@@H]1CN(C)S(=O)(=O)c1ccccc1
  2	6	-3.9	i	-0.8
COc1ccc(S(=O)(=O)Nc2ccc3c(c2)[C@@H]2C[C@H](CC(=O)O)O[C@H](CO)[C@@H]2O3)cc1
  -2	-4	2.1	i	1.1
C[C@H]1CN([C@@H](C)CO)C(=O)c2c(c3ccccc3n2C)-c2ccccc2CO[C@@H]1CN(C)CC1CC1
  -4	-2	0.0	i	-3.8
CC(=O)N(C)C[C@@H]1Oc2cc(C#CC3(O)CCCC3)ccc2S(=O)(=O)N([C@H](C)CO)C[C@@H]1C
  0	4	0.3	i	-0.4
C[C@H]1CN([C@@H](C)CO)C(=O)c2cc(NC(=O)Cn3cnnn3)ccc2O[C@H]1CN(C)S(=O)(=O)c1cn(C)cn1
  1	-1	-1.1	i	-3.8
C[C@H]1CN([C@@H](C)CO)C(=O)c2cccc(NC(=O)Nc3ccc4c(c3)OCO4)c2O[C@H]1CN(C)Cc1ccncc1
  -5	-1	-0.1	i	-0.4
C[C@H](CO)N1C[C@H](C)[C@@H](CN(C)S(=O)(=O)c2cn(C)cn2)OCCCC[C@H](C)Oc2ccc(NS(=O)(=O)c3cccs3)cc2C1=O
  0	2	-1.7	i	-0.7
O=C(Nc1ccc2c(c1)OCO2)N[C@H]1CC[C@@H](CCNC(=O)C2CCC2)O[C@@H]1CO
  -1	-4	1.8	i	-1.2
Cc1noc(C)c1NC(=O)Nc1ccc2c(c1)C(=O)N([C@@H](C)CO)C[C@@H](C)[C@@H](CN(C)C(=O)Nc1c(C)noc1C)OCCCC[C@@H](C)O2
  1	8	0.4	i	-2.6
CO[C@H]1CN(C)C(=O)c2cc(NC(C)=O)ccc2OC[C@H](C)N(CC2CC2)C[C@H]1C
  0	2	-1.2	i	-1.0
CCCNC(=O)Nc1ccc2c(c1)C(=O)N(C)C[C@@H](OC)[C@@H](C)CN(C(C)=O)[C@@H](C)CO2
  1	1	0.4	i	-0.9
Cc1ccc(Cc2c(-c3ccccc3)nc3cc(C)c(Br)c(C)n23)cc1
  3	-2	6.1	i	-0.6
CC(=O)N1Cc2cc(C(=O)NCC(F)(F)F)nc(-c3cccc(-c4cc5ccccc5o4)c3)c2[C@H]1CCO
  -3&18	-9&1	-1.8&3.3	i	20&0.8
OC(c1ccc(F)c(F)c1)c1ncc(-c2ccc(Cl)cc2)[nH]1 (stereo not given)
  -54	-80	-18	i	9.6
CCOC1=C2[C@@H](CN(S(=O)(=O)c3ccc(C)cc3)[C@H]2c2ccc(CC)cc2)[C@H]2C(=O)N(c3ccccc3)C(=O)[C@H]2C1
  15	13	1.1	i	0.8
CC(C)CN(C(=O)COC(=O)C12CC3CC(CC(O)(C3)C1)C2)c1c(N)n(Cc2ccccc2)c(=O)[nH]c1=O
  10	10	2.4	i	-8.6
C[C@@H]1CN([C@@H](C)CO)C(=O)c2cc(NS(=O)(=O)c3ccc(F)cc3)ccc2O[C@@H]1CN(C)Cc1ccc(C(F)(F)F)cc1
  -9	-30	13	i	0.9
CO[C@H]1CN(C)C(=O)c2ccc(NC(=O)C3CC3)cc2OC[C@H](C)N(C(=O)c2cccnc2)C[C@H]1C
  1	0	1.1	i	-0.2
CC(=O)N(C)C[C@@H]1Oc2ncc(C#Cc3ccccn3)cc2C(=O)N([C@@H](C)CO)C[C@H]1C
  10	9	2.5	i	-3.1
C[C@@H]1CN([C@@H](C)CO)C(=O)c2cc(NC(=O)c3ccccc3)ccc2O[C@@H](C)CCCCO[C@@H]1CN(C)Cc1ccc(C(F)(F)F)cc1
  6&0	10&3	4.2&0.9	i	-6.9&0.1
COc1cccc(-c2cnc3c(NC(C)=O)cc(-c4cccc(NS(C)(=O)=O)c4)cn23)c1
  -3	-2	0.0	i	-1.6
CC(=O)C1=CCC(c2ccccc2Cl)N(S(=O)(=O)c2ccc(C)cc2)C1 (stereo not given)
  -30	-53	17	i	1.3
C/C=C/c1cnc2c(c1)C(=O)N([C@H](C)CO)C[C@H](C)[C@H](CN(C)C(=O)Nc1cccc(OC)c1)O2
  -3	10	1.3	i	-0.8
CCCN1C[C@H](C)[C@@H](OC)CN(C)C(=O)c2cc(NC(=O)c3cccc(F)c3)ccc2OC[C@H]1C
  -2	-18	1.0	i	-0.4
CC(=O)N1CC(=O)N2[C@H](C1)[C@H](c1ccc(C#CC(C)C)cc1)[C@@H]2CO
  3	5	-7.7	i	-1.1
COc1cc(C(=O)c2cc3c(cc2C)OCO3)cc(OC)c1OC
  0	-8	-2.2	i	-0.1
CCCN1[C@@H]2c3ccc(C4=CCCCC4)c(=O)n3C[C@H]1[C@H](CO)[C@H]2C(=O)Nc1ccccc1
  -4	-4	2.6	i	2.7
C[C@H](CO)N1C[C@H](C)[C@@H](CN(C)C(=O)CN(C)C)Oc2ncc(C#CC3(O)CCCC3)cc2C1=O
  4	3	-2.0	i	-2.4
C[C@@H]1CCCCO[C@H](CN(C)Cc2ccc(C(F)(F)F)cc2)[C@H](C)CN([C@H](C)CO)C(=O)c2cc(NC(=O)Nc3ccc(F)cc3)ccc2O1
  0	6	5.0	i	2.6
C[C@H]1CN([C@@H](C)CO)C(=O)c2cc(NS(=O)(=O)c3ccc(F)cc3)ccc2O[C@@H]1CN(C)C(=O)NC1CCCCC1
  -1	5	-1.1	i	-3.2
COc1ccc(CN(C)C[C@H]2OCCCC[C@@H](C)Oc3ccc(NS(=O)(=O)c4cccs4)cc3C(=O)N([C@H](C)CO)C[C@H]2C)cc1
  1	-1	1.0	i	6.5
Cc1noc(C)c1NC(=O)Nc1ccc2c(c1)C(=O)N([C@H](C)CO)C[C@H](C)[C@H](CN(C)C)OCCCC[C@H](C)O2
  2	1	-2.1	i	-1.8
C/C=C/c1cnc2c(c1)C(=O)N([C@@H](C)CO)C[C@@H](C)[C@H](CN(C)S(=O)(=O)c1cn(C)cn1)O2
  1	1	-0.7	i	-11
N#C[C@@H]1[C@@H](c2ccc(C#CC3CCCCC3)cc2)[C@H](CO)N1C(=O)Cc1ccccn1
  -1	-34	25	i	3.2
COc1cc2oc(=O)cc(CN3CCN(c4ccccc4F)CC3)c2cc1Cl
  21	19	2.9	i	-2.9
CN1CCN(C(=O)C[C@@H]2C[C@@H]3c4cc(NC(=O)NC5CCCC5)ccc4O[C@@H]3[C@H](CO)O2)CC1
  4	7	-2.1	i	-0.9

Molecules above that contain an aryl methoxy group (eight):
The line under a structure holds: rRNA inh HTS	rRNA inh HTS OD600	rRNA inh HTS RFP	FGF22 binding	AF4-AF9 inh
CCN(CC)c1ncnc2c1ncn2[C@H]1CN(Cc2ccc(OC)cc2)C[C@@H](CO)O1
  3	-2	0.1	i	1.1
COc1ccc(Cc2nc3ccc(C(=O)NC4CCOC4)cc3o2)cc1OC (stereo not given)
  6	9	2.5	i	-0.2
COc1ccc(S(=O)(=O)Nc2ccc3c(c2)[C@@H]2C[C@H](CC(=O)O)O[C@H](CO)[C@@H]2O3)cc1
  -2	-4	2.1	i	1.1
COc1cccc(-c2cnc3c(NC(C)=O)cc(-c4cccc(NS(C)(=O)=O)c4)cn23)c1
  -3	-2	0.0	i	-1.6
C/C=C/c1cnc2c(c1)C(=O)N([C@H](C)CO)C[C@H](C)[C@H](CN(C)C(=O)Nc1cccc(OC)c1)O2
  -3	10	1.3	i	-0.8
COc1cc(C(=O)c2cc3c(cc2C)OCO3)cc(OC)c1OC
  0	-8	-2.2	i	-0.1
COc1ccc(CN(C)C[C@H]2OCCCC[C@@H](C)Oc3ccc(NS(=O)(=O)c4cccs4)cc3C(=O)N([C@H](C)CO)C[C@H]2C)cc1
  1	-1	1.0	i	6.5
COc1cc2oc(=O)cc(CN3CCN(c4ccccc4F)CC3)c2cc1Cl
  21	19	2.9	i	-2.9
